HPGD block – blocks human HPGD enzyme activity; 4.3% of 150,000 active; P15428; Potency, µM, inactives show at the top dose activity change, negative = inhibition, hits mostly inhibitors; purified HPGD, NADH fluorescence kinetic, PGE2 substrate; active = well fitted inhibition curve with a large enough effect (not every such curve was filed as active); inconclusive = small, poorly fitted or top-dose-only effect, or another doubt; inactive = no such curve, though single readings can be large or run the other way;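 also: top concentration of the series not given in the record; plate controls included wells without enzyme; inactives centre near -10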
Target sequence (P15428 whole entry, looked up): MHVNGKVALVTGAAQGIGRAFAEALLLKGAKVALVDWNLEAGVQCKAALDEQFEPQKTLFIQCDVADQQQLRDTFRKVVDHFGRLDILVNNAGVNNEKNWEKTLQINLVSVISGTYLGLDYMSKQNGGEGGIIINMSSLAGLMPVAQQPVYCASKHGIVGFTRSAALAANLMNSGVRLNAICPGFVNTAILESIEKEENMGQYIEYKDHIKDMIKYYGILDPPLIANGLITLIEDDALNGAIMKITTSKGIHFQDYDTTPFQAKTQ
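20 nM HPGD preincubated 15 min at room temperature with compound in 50 mM Tris-HCl pH 8, 0.01% Tween 20. Started with 1 mM NAD+ and 30 uM prostaglandin E2; NADH fluorescence (360/450 nm) read 5 times over 30-s intervals, last minus first.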
The depositor's hits bear a star; ? = inconclusive. % is scaled to controls: 0 for no effect and ±100 for the full control effect; potency is read from the fitted curve at half-maximal effect. An excerpt; count on the stated rates, not on these rows.

SMILES | HPGD block
CCCN1Cc2cccc(C(=O)NCc3ccc4c(c3)OCO4)c2C1=O | -9%
Cc1nc(NCCO)c(C#N)c2c1COC(C)(C)C2 | ?
O=C(O)c1ccc(NC(=S)Nc2ccccc2)cc1 | -16%
COCCNC(=O)CN1CCOc2ccccc21 | -5%
CCN(CC)C(=O)c1ccc(NS(=O)(=O)c2ccccc2)cc1 | -26%
O=P(Cc1ccccc1)(c1ccccc1)c1ccccc1 | -5%
O=C(Nc1ccccc1)NC1CCN(CCCN2C(=O)c3ccccc3C2=O)CC1 | -7%
CC(C)C(NC(=O)c1ccc(S(=O)(=O)N2CCOCC2)cc1)c1nc2ccccc2[nH]1 (stereo unspecified) | -2%
N#CC1=C(N)Oc2cc(N)ccc2C1c1ccc(F)cc1 (stereo unspecified) | -20%
O=C(NCc1ccc(F)cc1)C1CCC(=O)N1C1CCCCC1 (stereo unspecified) | -6%
CCC(C)C(NC(=O)c1ccc(Cl)cc1)C(=O)O (stereo unspecified) | 1%
CCn1cc(C(=O)OC(C)C(=O)Nc2c(C)n(C)n(-c3ccccc3)c2=O)c(=O)c2ccc(C)nc21 (stereo unspecified) | -21%
CCCCSC1(SCCCC)N=C(N)C2(C#N)C(c3ccccc3)NC(C)=CC12C#N (stereo unspecified) | -3%
O=C1CC(c2ccccc2)CC(O)=C1C=NCCN1CCNCC1 (stereo unspecified) | -10%
Nc1c(C(=O)Nc2ccc(S(=O)(=O)N3CCCC3)cc2)sc2nc3cc4c(cc3cc12)CCC4 | -8%
COC(=O)c1cn(C(=O)c2cccs2)c2ccccc12 | -6%
CC1(C)COC(c2coc3ccccc3c2=O)OC1 | -7%
COc1ccc(C2CC(c3ccc(OC)cc3)n3nc(N)nc3N2)cc1 (stereo unspecified) | 0%
CNS(=O)(=O)c1ccc(NC(=O)C(CCSC)NC(N)=O)cc1 (stereo unspecified) | -12%
CC(CCc1ccccc1)NC(=O)COC(=O)C1=COCCO1 (stereo unspecified) | -7%

A stretch from further up, for reference:
SMILES | HPGD block
CCCN1Cc2cccc(C(=O)NCc3ccc4c(c3)OCO4)c2C1=O | -9%
Cc1nc(NCCO)c(C#N)c2c1COC(C)(C)C2 | ?
O=C(O)c1ccc(NC(=S)Nc2ccccc2)cc1 | -16%
COCCNC(=O)CN1CCOc2ccccc21 | -5%
CCN(CC)C(=O)c1ccc(NS(=O)(=O)c2ccccc2)cc1 | -26%
O=P(Cc1ccccc1)(c1ccccc1)c1ccccc1 | -5%
O=C(Nc1ccccc1)NC1CCN(CCCN2C(=O)c3ccccc3C2=O)CC1 | -7%
CC(C)C(NC(=O)c1ccc(S(=O)(=O)N2CCOCC2)cc1)c1nc2ccccc2[nH]1 (stereo unspecified) | -2%
N#CC1=C(N)Oc2cc(N)ccc2C1c1ccc(F)cc1 (stereo unspecified) | -20%
O=C(NCc1ccc(F)cc1)C1CCC(=O)N1C1CCCCC1 (stereo unspecified) | -6%
CCC(C)C(NC(=O)c1ccc(Cl)cc1)C(=O)O (stereo unspecified) | 1%
CCn1cc(C(=O)OC(C)C(=O)Nc2c(C)n(C)n(-c3ccccc3)c2=O)c(=O)c2ccc(C)nc21 (stereo unspecified) | -21%
CCCCSC1(SCCCC)N=C(N)C2(C#N)C(c3ccccc3)NC(C)=CC12C#N (stereo unspecified) | -3%
O=C1CC(c2ccccc2)CC(O)=C1C=NCCN1CCNCC1 (stereo unspecified) | -10%
Nc1c(C(=O)Nc2ccc(S(=O)(=O)N3CCCC3)cc2)sc2nc3cc4c(cc3cc12)CCC4 | -8%
COC(=O)c1cn(C(=O)c2cccs2)c2ccccc12 | -6%
CC1(C)COC(c2coc3ccccc3c2=O)OC1 | -7%
COc1ccc(C2CC(c3ccc(OC)cc3)n3nc(N)nc3N2)cc1 (stereo unspecified) | 0%

The listing continues:
SMILES | HPGD block
COC(=O)c1ccc(/C=C/c2ccc3cccc(OC(C)=O)c3n2)cc1 | ?
CCOC(=O)Cc1c(Sc2ccccc2)c2ccccc2n1C | -3%
Cc1ccc(NC(=O)COn2nnc3ccc(S(=O)(=O)N(C)C)cc32)cc1F | -5%
C=C(CCC12O[C@H](C(=O)O)[C@@](O)(C(=O)O)[C@](C(=O)O)(O1)[C@H](OC(=O)/C=C/[C@@H](C)C[C@@H](C)CC)[C@H]2O)[C@@H](OC(C)=O)[C@H](C)Cc1ccccc1 | -19%
CCOC(=O)c1c(C)nc2c(c1C)c(=O)oc1ccccc12 | -15%
O=C(Cn1nnc(-c2ccccc2)n1)OCc1csc(-c2ccccc2)n1 | -16%
CCCNC(=S)N1CCC(c2nc3cc(C)c(C)cc3[nH]2)CC1 | -12%
COc1ccc(/C=C(\NC(=O)c2cccs2)C(=O)N2CCOCC2)cc1OC | -24%
Cc1nn2c3c(cnc2c1-c1ccccc1)C(=O)CCC3 | -7%
CCSC1=NCN(CCCC(=O)O)CN1 | -1%
CC1=C(C(=O)N2CCOCC2)C(c2ccc(O)cc2)NC(=S)N1 (stereo unspecified) | -14%
O=C(c1ccc(Cl)cc1)N(Cc1cccs1)C1CCS(=O)(=O)C1 (stereo unspecified) | 7%
CCN1CCc2nc(NC(=O)C(c3ccccc3)c3ccccc3)sc2C1 | -6%
O=C(O)CCc1nn2cnc3sc4c(c3c2nc1=O)CCCC4 | -9%
CCOC(=O)c1c(NC(=O)CSc2nnc(-c3c[nH]c4ccccc34)n2CC)sc2c1CCCC2 | -13%
Cc1csc(Nc2ccccc2C(F)(F)F)n1 | -25%
Cc1ccc(C)c(S(=O)(=O)c2c(N)n(/N=C/c3ccco3)c3nc4ccccc4nc23)c1 | ?
Cc1ccc(/C=N/NC(=O)Cn2cnc3c2c(=O)n(C)c(=O)n3C)s1 | -6%
COC(=O)c1ccc(NC(=S)NCCc2ccccc2C)cc1 | -27%
CC(=O)C1=C(O)C(=O)N(c2ccc(C(=O)O)cc2)C1c1ccccc1 (stereo unspecified) | ?
CCC(C)NC(=O)CCNS(=O)(=O)c1ccc(Br)cc1 (stereo unspecified) | 0%
Cn1nnc(NC(=S)NC(=O)c2ccco2)n1 | ?
c1ccc(Cc2nnc3sc(Nc4ccccc4)nn23)cc1 | -11%
C/C=C/c1ccccc1OCc1ccc(C(=O)O)o1 | -7%
c1ccc(C2OC3c4cccc5cccc(c45)C3N2c2ccccc2)cc1 (stereo unspecified) | -15%
Cc1ccnc(NC(=O)c2sc3ccccc3c2Cl)c1 | -15%
NC(=O)C1CCCN(Cc2ccc(Cl)cc2)C1 (stereo unspecified) | -3%
Cc1cccc(C)c1NS(=O)(=O)c1ccc(NC(=O)c2ccc(Cl)c([N+](=O)[O-])c2)cc1 | -7%
CN(C)S(=O)(=O)c1ccc(C(=O)Nc2ccccc2[N+](=O)[O-])cc1 | -7%
CC(=O)c1ccc(NC(=O)C2CCC(C)NC2=O)cc1 (stereo unspecified) | -5%

Reprinted at random: 2 records from the list.
SMILES | HPGD block
CCC(C)NC(=O)CCNS(=O)(=O)c1ccc(Br)cc1 (stereo unspecified) | 0%
NC(=O)C1CCCN(Cc2ccc(Cl)cc2)C1 (stereo unspecified) | -3%

Next part:
SMILES | HPGD block
Cc1ccccc1-n1c(Cn2c(=O)sc3ccccc32)nnc1SCC(=O)N1CCOCC1 | -5%
CCc1ccc(NC(=O)COC(=O)C2(c3ccc(Cl)cc3)CCCC2)cc1 | -10%
Cc1cccc(C)c1N/C=C/c1onc(C)c1[N+](=O)[O-] | -20%
N#C/C(=C(/O)CN1CCN(c2ccccc2F)CC1)c1nc(-c2ccccc2)cs1 | 0%
CC(C)[C@H](Nc1ccc(S(=O)(=O)N2CCOCC2)cc1[N+](=O)[O-])C(=O)OCC(N)=O | -2%
CCCCN(CC)S(=O)(=O)c1ccc2c(c1)CCCN2C(C)=O | -6%
COc1ccc(/C=C/C(=O)OC(C)CN2CCOCC2)cc1 (stereo unspecified) | -14%
O=C(CN(C(=O)C1CSC(=O)C1)c1ccccc1F)NCc1ccc2c(c1)OCO2 (stereo unspecified) | -6%
O=C(Cn1cnc2ccccc2c1=O)NCC(=O)N1CCN(c2ccccn2)CC1 | -8%
O=C(CCCC1=NS(=O)(=O)c2ccccc2N1)N1CCN(c2ccccc2)CC1 | -8%
O=c1oc2ccccc2c2oc3cc(O)c(O)cc3c12 | ?
CC(C)C[C@@H]1NC(=O)[C@H](CO)NC(=O)c2cc([N+](=O)[O-])cc(I)c2OCC[C@@H](C(N)=O)NC1=O | -9%
O=C(COc1ccc(S(=O)(=O)NC2CCCCC2)cc1Cl)N1CCN(c2ccccc2)CC1 | -8%
Cc1ccc(/C(N)=N/OC(=O)Cc2cccs2)cc1 | -13%
COCCNC(=O)Nc1ccc2nc(-c3cccs3)c(-c3cccs3)nc2c1 | -21%
Cc1cc2cc(CN(Cc3ccco3)C(=O)NCc3ccccc3)c(=O)[nH]c2cc1C | -18%
COc1ccc(-c2csc(NC(=S)NC(=O)/C=C/c3ccco3)n2)cc1OC | -23%
CCS(=O)(=O)NCCc1cc2cc(C)c(C)cc2[nH]c1=O | ?
C=C1C[C@@]23C[C@@]1(O)CC[C@@H]2[C@]12C=C[C@@H](O)[C@](C)(C(=O)O1)[C@@H]2[C@@H]3C(=O)O | -5%
CCCCn1c(NCCN(C)C)nc2c1c(=O)[nH]c(=O)n2C | -17%
Nc1nc(N)nc(-c2ccc(Oc3ccccc3)cc2)n1 | -27%
O=C(COC(=O)c1ccccn1)Nc1ncc(C(F)(F)F)cc1Cl | -15%
O=C(Nc1cccc2ccccc12)C12CC3CC(C1)CC(n1cnc([N+](=O)[O-])n1)(C3)C2 | -4%
CC(C)OC(=O)C1C(=O)CC(C)(O)C(C(=O)OC(C)C)C1c1cccc(O)c1 (stereo unspecified) | -7%
CN(C)S(=O)(=O)c1ccc(NC(=O)CSc2ncnc3ccccc23)cc1 | -6%
COc1ccc(C(Nc2ccccn2)c2c(NC(=O)c3ccco3)sc(C)c2C)cc1 (stereo unspecified) | -25%
COc1ccc(C(C#N)Nc2ccccc2OC)cc1 (stereo unspecified) | -1%
Cc1ccc(-c2nnn(CC(=O)N(c3ccc(F)cc3)C(C(=O)NC3CCCC3)c3ccco3)n2)o1 (stereo unspecified) | -1%
O=C1Nc2ccccc2C1=Nc1ccc(-c2nnc3n2CCCCC3)cc1 | 5µM*
CCOC(=O)c1c(C)oc2c1c1c(c3ccccc32)OCN(Cc2cccnc2)C1 | -25%
Cc1nn(Cc2ccc(Cl)cc2Cl)c(C)c1NC(=O)c1sc2ccccc2c1Cl | 0%
CC(Oc1ccc(Cl)cc1Cl)C(=O)NCCCn1ccnc1 (stereo unspecified) | -20%
O=C1CC(N2CCN(CCc3ccccn3)CC2)C(=O)N1c1ccc(Cl)cc1 (stereo unspecified) | -6%
N#Cc1nc(-c2ccccc2Cl)oc1NCc1ccco1 | ?
Cc1cc(N2CCN(C)CC2)nc(N2CCOCC2)n1 | -11%
Cc1cc(C(F)(F)F)c(C#N)c(SCC(=O)NC2CC2)n1 | -4%
CCCC/C=C/C(NC(=O)c1ccccc1)c1ccccc1 (stereo unspecified) | -6%
Cc1ccc2c(c1)[nH]c1c(=O)n(CCC3=CCCCC3)cnc12 | -12%
O=S(=O)(Nc1ccc(Cc2ccncc2)cc1)c1ccc(Cl)c(Cl)c1 | -5%
CCOC(=O)c1sc2ncnc(N3CCN(c4ccc(OC)cc4)CC3)c2c1C | -19%
CCOC(=O)N1CCN(C(c2ccccc2)c2sc3nc(C)nn3c2O)CC1 (stereo unspecified) | 0%
CN(C)CCCNC(=O)CCC1CCCCC1 | -9%
CCn1c(=O)c2ccccc2n2c(SCC(=O)N3CCc4ccccc4C3)nnc12 | -15%
COc1ccccc1N1CCN(C(=O)COc2ccc(Cl)cc2Br)CC1 | -11%
Cc1cccc(N2CCN(c3nc4ccccc4n4cnnc34)CC2)c1C | ?
N/C(=N\OC(=O)/C=C/c1ccccc1)c1ccccc1 | -23%
Cc1ccccc1-n1c(SCC(=O)N2CCCC2)nnc1-c1ccccn1 | ?
CC(/C=C/c1ccccc1)=N\Nc1nc(C)cc(C)n1 | -7%
CC(C)OC(=O)CCCCCN1C(=O)CSC1=S | -11%
O=C(NCCCc1ccccc1)c1cnc2n(c1=O)CCS2 | -10%
Later entries
SMILES | HPGD block
N#CC(c1cccc(Cl)c1)c1ccc2c(C(F)(F)F)cc(C(F)(F)F)nc2n1 (stereo unspecified) | -28%
COc1ccc(CC(NC(C)=O)C(=O)NC2CCN(C(=O)c3cnccn3)CC2)cc1 (stereo unspecified) | -2%
CN(C)C(=O)N1CCCC(C(=O)NCc2cccs2)C1 (stereo unspecified) | 1%
O=C(NCc1ccc(Cl)cc1)c1cccnc1 | -16%
O=C(Cn1c(=O)n(Cc2ccco2)c(=O)c2c3c(sc21)CCCCC3)Nc1ccccc1 | ?
Cc1cnc(N)c2c(=O)oc3ccccc3c12 | ?
CCC(=O)Nc1cc(-c2nn(C)c(=O)c3ccccc23)ccc1OC | -1%
Nc1nnc(Cc2c[nH]c3ccccc23)s1 | 0%
COc1cccc(NC(=O)C2C3CCC4C(CCC32)C4(Cl)Cl)c1 (stereo unspecified) | -9%
CCOC(=O)C(C)Sc1ncc(-c2ccc(Cl)cc2)cn1 (stereo unspecified) | 1%
CS/C(=C\[N+](=O)[O-])Nc1ccc(Cl)cc1 | 1%
CCn1c(CNC(=O)c2ccc(OC)c(OC)c2)nnc1SCC(=O)Nc1ccc(OC)cc1 | -1%
CCCCSc1nc(C)nc2c1c(=O)n(C)c(=O)n2C | -17%
C/C(=C\C(=O)c1ccc(Br)cc1)NCc1ccc2c(c1)OCO2 | -19%
O=C(Nc1ccccc1)c1ccc(Nc2c([N+](=O)[O-])cc([N+](=O)[O-])c3ccccc23)cc1 | -20%
COc1ccc(N2CCN(C(=O)CSc3nnc(COc4cccc5cccnc45)o3)CC2)cc1 | -3%
CC(C)CC(CO)N1CCN(C(=O)c2cccc(C(F)(F)F)c2)CCC1=O (stereo unspecified) | 4%
COc1ccc(C(=O)n2cc(C(=O)c3cc(C)ccc3O)cn2)cc1 | -12%
CCOC(=O)c1c(NC(=O)CC2SC(=NC)N(C)C2=O)sc(C)c1C (stereo unspecified) | ?
O=C(Nc1nc2ccccc2n1Cc1ccccc1)c1ccco1 | -20%

Screening results (PubChem)
